Screening data (PubChem)
Anthrax LT inh = anthrax lethal toxin internalization inhibition; Cells, anthrax lethal toxin internalization, FRET ratio (460/530); Potency, µM (titrated, usually from 40 µM), for inactives: at the highest dose activity change, negative = inhibition, most hits filed as inhibitors; hit rate 0.67% among 70,000; AID 912; active = well fitted falling ratio curve with the 530 nm signal flat; inconclusive = other ratio curves, or a change in one channel alone; inactive = flat curves in the ratio and both channels; the % refers to the ratio; also: % is scaled to controls: 0 for no effect and ±100 for the full control effect; nearly all actives have a fitted effect of over 50% in size; tested in ME-180 cells; beta-lactamase reporter
Prx2 Sm inh = inhibitors of Schistosoma mansoni peroxiredoxin 2. S. mansoni Prx2 activity coupled to TGR/GSH (TGR is thioredoxin glutathione reductase), NADPH fluorescence loss, qHTS; some inactives read as strong as hits. Potency, µM. hit rate 0.07% among 65,000. AID 448; active means full or partial inhibition curve with a strong effect at the top dose; inconclusive means weaker partial or single-point curve; inactive means no accepted curve; also: series up to 57 µM; many of its hits are not listed in these tables
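Purified S. mansoni TGR and Prx2 in pH 7.4 phosphate buffer with EDTA and Tween-20 were preincubated with compounds for 15 min. Further NADPH/GSH was added, then a 2.5 mM H2O2 aliquot initiated turnover, followed kinetically by NADPH fluorescence.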
* hit, by the source's call; u = inconclusive; x = not tested or not shown; & = joins results of further samples; [ ] = another dose, or the depositor's remark. Potency is read from the fitted curve at half-maximal effect. Some of the compounds tested; the hit share may differ from the screen's.

Values run as follows: Anthrax LT inh	Prx2 Sm inh
> Cc1ccc2oc(NC(=O)N3CCOCC3)cc(=O)c2c1
  -2.6%	>57
> CCN(CC)CCCNc1cc2n(c(=O)n1)CCc1cc(OC)c(OC)cc1-2
  3.1%	x
> O=C(NCCc1csc(-c2cccnc2)n1)c1cccs1
  -14.9%	>57
> CCC(=O)Nc1ccc(C(=O)CSc2nnc(-c3cccnc3)o2)cc1
  7.2%	>57
> CCOC(=O)c1nn(-c2ccccc2)c(=O)c(C#N)c1C
  3.5%	>57
> N/N=C1/CC(=O)NC(=O)N1
  u	>57
> O=C(NC(Nc1ncccn1)C(=O)c1ccccc1)c1ccccc1 (centres undefined)
  5.8%	x
> Cc1ccc(C)c(OCCCC(C)(C)C(=O)O)c1
  u	>57
> Cc1[nH]n(CCC#N)c(=O)c1CC(=O)N1CCN(c2ccccc2)CC1
  -6.1%	>57
> CCOC(=O)c1ccc(N2C(=O)CC(N3CCC(C(=O)OCC)CC3)C2=O)cc1 (centres undefined)
  -8.9%	>57
> CCOc1ccc(NC(=O)NCCN2C(C)CCCC2C)cc1 (centres undefined)
  -15.6%	>57
> Clc1cnccn1
  1.7%[3.58 µM]	>57
> Cc1ccc(S(=O)(=O)N[C@@H](Cc2ccccc2)C(=O)CCl)cc1
  u	>57
> COc1ccc(Cn2nnc(C(=O)Nc3ccc(F)cc3)c2N)cc1
  -8.3%	>57
> Cc1ccc(S(=O)(=O)N2CCC(C(=O)N[C@H](C(=O)NCC3CCCO3)C(C)C)CC2)cc1 (some centres undefined)
  -2.7%	>57
> Cc1cn([C@H]2C=C[C@H](CO)O2)c(=O)[nH]c1=O
  5.4%	>57
> COc1ccc(NC(=O)Cn2nnc(-c3ccc(CN4CCOCC4)cc3)n2)c(OC)c1
  -4.8%	>57
> CC(C)(C)c1cc(Br)c(O)c(CN(Cc2cc(C(C)(C)C)cc(Br)c2O)C2CCCCC2)c1
  2.0%[8 µM]	>57
> CNC(=O)Oc1ccc2c(c1)[C@@]1(C)CCN(C)[C@@H]1N2C
  u	>57&>57&>57&>57
> Cc1cc2oc(=O)cc(CN3CCC(C)CC3)c2c(C)c1Cl
  -0.4%	>57
> CCN(CC)CCNC(=O)c1cc(S(C)(=O)=O)ccc1OC
  0.8%[3.58 µM]	>57&>57
> Cc1nc2c(C(=O)NCc3ccc(F)cc3)c[nH]n2c(=O)c1Cl
  -8.1%	>57
> O=c1[nH]n(-c2cccc3cccnc23)c(=O)c2ccccc12
  -13.2%	>57
> Cc1cccc(-c2noc(CCC(=O)Nc3ccccc3)n2)c1
  7.7%	>57
> CCN(CC)C(=O)CSc1nnc(-c2ccc(S(=O)(=O)NCc3ccccc3Cl)cc2)o1
  -4.0%	>57
> CC[C@@]1(O)C(=O)OCc2c1cc1n(c2=O)Cc2cc3ccccc3nc2-1
  u	>57&>57&>57
> O=P(O)(O)c1ccccc1OCCOCCOc1ccccc1P(=O)(O)O
  -10.3%	>57
> Cc1nc(-c2cnn(-c3ccccc3)c2)c2cc(C)oc2n1
  -12.9%	>57
> Clc1ccc(OCc2nc(-c3ccncc3)no2)c(Cl)c1
  -11.1%	>57
> CC(NS(=O)(=O)c1ccc(F)cc1)C(=O)NCc1ccncc1 (centres undefined)
  u	>57
> O=C(CN1C(=O)c2ccccc2C1=O)Nc1ccc(S(=O)(=O)NCC2CCCO2)cc1 (centres undefined)
  17.3%	>57
> CCOC(=O)c1ccc(NC(=O)N2CCN(S(C)(=O)=O)CC2)cc1
  -11.0%	>57
> Cc1cc(NS(=O)(=O)c2ccc(NC(=O)CCCOc3ccccc3)cc2)no1
  -4.1%	>57
> Cc1nc2c(C)cccn2c1/C(O)=C1\C(=O)C(=O)N(CCN(C)C)C1c1ccncc1 (centres undefined)
  13.6%	x
> COCCNC(=O)COc1ccc(C)c(C)c1
  -6.4%	x
> CC(C)(C)n1nc2c(c1NC(=O)c1ccc(S(=O)(=O)N3CCCCC3)cc1)CS(=O)C2 (centres undefined)
  0.0%	>57
> CCOC(=O)C1=C(N)Oc2c(c(=O)oc3ccccc23)C12C(=O)N(C)c1ccccc12 (centres undefined)
  7.0%	>57
> O=C(Nc1ccc(F)cc1)c1ccc(S(=O)(=O)NCC2CCCO2)cc1 (centres undefined)
  -6.5%	>57
> COc1ccc(CCNC(=O)CN(C2CCCCC2)S(C)(=O)=O)cc1
  14.3%	>57
> CCCOc1ccc(C(=O)N2CCCC2)cc1OC
  7.3%	>57
> O=C(Cn1nnc(-c2ccc(CN3CCOCC3)cc2)n1)NC1CCCCC1
  -14.0%	>57
> COc1ccc(COC(=O)N/N=C2/C[C@@H](O)[C@@H](O)[C@@H]3[C@@H]4C(=O)N(C(C)(C)C)C(=O)[C@H]4CC[C@@H]23)cc1
  u	x
> CCC(C)c1ccc(NC(=O)C2CC2)cc1 (centres undefined)
  u	x
> COc1ccc(N(C)S(=O)(=O)c2c(C)[nH]c(=O)[nH]c2=O)c(OC)c1
  2.3%	>57
> CCc1ccc(NC(=O)CS(=O)CC(=O)Nc2ccc(F)cc2F)cc1 (centres undefined)
  -0.4%	>57
> COCC(=O)N1CCC2(CCCN(C(=O)Nc3cccc(F)c3)C2)CC1
  -9.5%	>57
> Nc1ccc2ncccc2c1
  10.2%	>57
> CCOC(=O)N1CCN(c2nc(SC)nc3sc4c(c23)CC(C)(C)OC4)CC1
  u	>57
> O=C(O)CCC(=O)N1CCc2cc(S(=O)(=O)N3CCCCC3)ccc21
  -16.9%	>57
> COC(=O)c1ccc(Cn2cnc3c(cnn3-c3ccc(F)cc3)c2=O)o1
  -7.4%	>57
> COc1ccc(OCC(=O)N2CCN(C(=O)c3cccs3)CC2)cc1
  0.1%	>57
> N#Cc1ccc(Cn2c(=O)c(C#N)c3n(c2=O)CCC3)cc1
  x	>57
> Cc1c(C(=O)OC(C)C)[nH]c2c1C(=O)CC(C)(C)C2
  16.0%	>57
> CC1CCN(C(=O)c2ccccc2NC(=O)c2cccc(S(=O)(=O)N3CCOCC3)c2)CC1
  6.2%	>57
> CCN1C(=O)C2(C(C#N)=C(N)Oc3c2c(C)nn3-c2ccccc2)c2ccccc21 (centres undefined)
  u	>57
> CCOC(=O)/C=C1\SCC(=O)N1CC(=O)Nc1ccc2c(c1)CCC2
  -10.3%	>57
> CCN(CC)CCNC(=O)C1CCC(=O)N1CCc1ccccc1 (centres undefined)
  0.3%	>57
> Cc1ccc(C(=O)OC2CCOC2=O)cc1NC(=O)c1ccco1 (centres undefined)
  -11.1%	>57
> Cc1cc(Nc2ccccc2)n(-c2nc3ccccc3[nH]2)n1
  u	>57
> CCCCSc1nc2c(cnn2-c2ccc(F)cc2)c(=O)[nH]1
  5.4%	>57

In another format: 2 of the compounds above.
SMILES | Anthrax LT inh | Prx2 Sm inh
CCOC(=O)/C=C1\SCC(=O)N1CC(=O)Nc1ccc2c(c1)CCC2 | -10.3% | >57
CCN(CC)CCNC(=O)C1CCC(=O)N1CCc1ccccc1 (centres undefined) | 0.3% | >57

The listing picks up, starting 4 compounds before the break.
Values run as follows: Anthrax LT inh	Prx2 Sm inh
> CCN(CC)CCNC(=O)C1CCC(=O)N1CCc1ccccc1 (centres undefined)
  0.3%	>57
> Cc1ccc(C(=O)OC2CCOC2=O)cc1NC(=O)c1ccco1 (centres undefined)
  -11.1%	>57
> Cc1cc(Nc2ccccc2)n(-c2nc3ccccc3[nH]2)n1
  u	>57
> CCCCSc1nc2c(cnn2-c2ccc(F)cc2)c(=O)[nH]1
  5.4%	>57
> CN(C)c1ccc(CN(C(=O)COc2ccccc2)C2CCS(=O)(=O)C2)cc1 (centres undefined)
  -2.2%	>57
> CC(C)CCn1c(Cl)nc2c1c(=O)n(C)c(=O)n2C
  -8.4%	>57
> CCOC(=O)c1c(NC(=O)c2cccs2)sc2c1CCCC2
  -21.2%	x
> CC(C)C[C@@H](CC(=O)N[C@@H](CCCN)CC(=O)N[C@@H]1CCCC[C@H]1C(=O)N[C@H](CC(=O)N[C@@H](CCC(=O)O)CC(=O)O)Cc1c[nH]c2ccccc12)NC(=O)[C@@H]1CCCC[C@H]1N
  7.0%	>57
> O=C(Cn1ncc2c3ccccc3n(Cc3ccccc3)c2c1=O)N1CCC2(CC1)OCCO2
  10.5%	>57
> Cc1cc(=O)oc2c1c(C)nn2-c1ccc(C(=O)OC(C)C)cc1
  -4.9%	>57
> OC(COCC1COc2ccccc2O1)CN1CCN(c2ccccn2)CC1 (centres undefined)
  0.7%	>57
> O=C(NCCc1ccc(Cl)cc1)C1CCN(S(=O)(=O)N2CCCC2)CC1
  14.9%	>57
> CC(OC(=O)c1ccc2ccccc2n1)C(=O)Nc1ccc(N2CCOCC2)cc1 (centres undefined)
  1.6%	>57
> CCOC(=O)N1CCC(NC(=O)c2cc(C(=O)Nc3ccc(OC)c(OC)c3)ccc2CO)CC1
  10.5%	>57
> O=C(Nc1ccccc1C(=O)N1CCOCC1)C1CCC(=O)N1C1CCCC1 (centres undefined)
  -6.0%	>57
> Cc1ccc(C2C3=C(CCCC3=O)Nc3nc(SCC(=O)NCc4ccco4)[nH]c(=O)c32)cc1 (centres undefined)
  u	>57
> CSc1sc(C)cc1C1C(C#N)=C(N)N(c2cccnc2)C2=C1C(=O)CCC2 (centres undefined)
  11.0%	>57
> Cc1ccc(S(=O)(=O)NCCNC(=O)CN2CCCC2)cc1
  5.6%	>57
> COC(=O)Nc1ccc2c(c1)N(C(=O)CCN1CCN3CCCC3C1)c1ccccc1S2 (centres undefined)
  14.1%	>57
> COCC(C)NC(=O)c1ccc(Cl)c(Cl)c1 (centres undefined)
  8.6%	>57
> O=C(CC12CC3CC(C1)CC(CC(=O)NC1=NCCS1)(C3)C2)NC1=NCCS1
  4.3%	>57
> Cc1ccc(-n2nnc3c(=O)n(CC(=O)NCc4ccco4)cnc32)cc1
  7.9%	>57
> COc1ccc2c(c1)OC(O)(C(F)F)CC2=O (centres undefined)
  -9.9%	x
> Brc1ccc(-c2nn3c(Cc4ccccc4)nnc3s2)o1
  0.3%	>57
> CCCNC(=O)Cn1cnc2sc(C(=O)N3CCCC(C(=O)OCC)C3)c(C)c2c1=O (centres undefined)
  15.5%	>57
> Nc1ccn([C@@H]2CC[C@H](CO)O2)c(=O)n1
  1.4%[3.58 µM]	>57
> O=c1c2[nH]c3ccccc3c2ncn1CCC1=CCCCC1
  -6.4%	>57
> CCC(c1nnnn1Cc1ccco1)N(CCc1ccccc1)Cc1cc2ccc(OC)cc2[nH]c1=O (centres undefined)
  -24.9%	>57
> COC(=O)CSc1nnc(CSc2nc(C)cc(C)n2)n1Cc1ccco1
  -16.1%	>57
> COC(=O)C1=C(C)NC(C)=C(C(=O)OC)C1c1ccc(N(C)C)cc1
  10.3%	>57
> CO/C([O-])=N/c1c[n+](-c2ccc(C)cc2)no1
  8.7%	>57
> COc1cccc(OCC(O)CN2CCN(CCO)CC2)c1 (centres undefined)
  3.5%	>57
> COC(=O)C1=C(C)NC(=O)NC1c1cc(Cl)ccc1OC (centres undefined)
  -26.5%	>57
> CCOC(=O)c1c(NC(=O)Cc2cccs2)sc(C)c1C
  u	x
> Cc1cnc(NC(=O)COc2ccccc2)s1
  -18.4%	>57
> CC(=O)c1ccc(OC2C=CC(C#Cc3ccc(Br)cc3)OC2CO)cc1 (centres undefined)
  -18.6%[8 µM]	x
> O=C(Nc1ccccc1)OCCNC(=O)c1ccccc1
  -5.6%	>57
> c1ccc(-n2ncc3c2ncn2c(C4CCCCC4)nnc32)cc1
  -6.9%	>57
> CC1(C)CC(=O)C(C=NCCCN2CCOCC2)=C(O)C1
  -5.8%	>57
> CCN1CCN(C(c2cc3cc4c(cc3[nH]c2=O)OCO4)c2nnnn2C(C)(C)CC)CC1 (centres undefined)
  u	>57
> O=C1Nc2ccccc2C(O)(C(=O)NCc2ccc3c(c2)OCO3)N1c1ccccc1 (centres undefined)
  4.2%	>57
> COc1ccc2c(c1)CCc1c(-c3noc4c3CCc3cc(OC)ccc3-4)noc1-2
  -3.6%[8 µM]	>57
> CCn1cc(C(=O)NCc2ccccn2)c(=O)c2cc(S(=O)(=O)N3CCCCC3)ccc21
  7.4%	>57
> CC(=O)N1CCC2(CC1)C(C#N)=C(N)Oc1c2sc2nc(C)cc(C)c12
  -15.6%	>57
> O=C(c1ccco1)N1CCN(S(=O)(=O)N2CCOCC2)CC1
  -6.8%	>57
> COCC(=O)N1CCC2(CCCN(c3cccc(-c4ccccc4)c3)C2)CC1
  -0.6%	>57
> COC(=O)CNC(=O)COC(=O)C(Cc1ccccc1)NC(=O)c1ccco1 (centres undefined)
  20.3%	>57
> COc1cccc(-c2ccc3ncnc(NC4CCNCC4)c3c2)c1
  u	>57
> COc1ccc(Cc2nc(-c3ccc(-n4cccc4)cc3)no2)cc1
  -13.1%	>57
> CS(=O)(=O)N1CCCC(C(=O)NCCCN2CCOCC2)C1 (centres undefined)
  9.2%	>57

Two compounds drawn at random from those above:
Values run as follows: Anthrax LT inh	Prx2 Sm inh
> CS(=O)(=O)N1CCCC(C(=O)NCCCN2CCOCC2)C1 (centres undefined)
  9.2%	>57
> Cc1cnc(NC(=O)COc2ccccc2)s1
  -18.4%	>57
